Screens deposited in PubChem BioAssay by ICCB-Longwood Screening Facility, Harvard Medical School.
AID504770: E. coli YBA685 growth inhibition, screen for V. cholerae RctB inhibitors; E. coli YBA685 rctB-dependent plasmid, OD600 growth, 3 h; hits give low values; z-score (no concentration beside the values); 0.27% of 130,000 active; AID 504770;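 active means z-score under -2 on both plates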;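 further: wells of about 30 µL received 100 nL stock; score is relative to mean and SD of the test wells; the first replicate is given; strong numbers were not always called active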
Ba CapD inh: blocks the Bacillus anthracis CapD enzyme | purified CapD enzyme, fluorescence intensity read-out; hits give low values; some hits fall short of the stated cut | z-score (concentration not given with the values) | 0.23% of 140,000 active | AID 492967;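 active means z-score under -4 in either of two replicates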;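 further: stock transfer was 100 nL into about 40 µL; score is relative to mean and spread of the plate; one replicate is shown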
Numbers without * were called inactive; . = no result given; & = joins results of further samples; ! = a repeat was not active.

| structure | AID504770 | Ba CapD inh |
| --- | --- | --- |
| CC(=O)O[C@]1(C(C)=O)CCC2C3C=C(Cl)C4=CC(=O)[C@@H]5C[C@@H]5[C@]4(C)C3CC[C@@]21C (stereo partly specified) | 0.05 | -0.05 |
| O=C(CCN1CCC(c2ccccc2)C1)c1ccc2c(c1)OCCO2 (stereo unspecified) | 0.05 | 0.42 |
| C=CC1=C(C(=O)O)N2C(=O)[C@@H](NC(=O)/C(=N\O)c3csc(N)n3)[C@H]2SC1 (stereo in doubt) | -5.1* | . |
| CC12CCC(CC1)C(C)(C)O2 | . | 60 |
| CN1CCN(C(c2ccccc2)c2ccccc2)CC1 | 0.5 | -0.21 |
| CN1CCN(CCC(=O)N2c3ccccc3Sc3ccc(C(F)(F)F)cc32)CC1 | . | 7 |
| CC(=O)c1ccc(S(=O)(=O)NC(=O)NC2CCCCC2)cc1 | . | -0.39 |
| CC(=O)Nc1ccc(C(=O)O)cc1 | -0.1 | . |

Part of the list above in order of SMILES length, highest first:
| structure | AID504770 | Ba CapD inh |
| --- | --- | --- |
| CC(=O)O[C@]1(C(C)=O)CCC2C3C=C(Cl)C4=CC(=O)[C@@H]5C[C@@H]5[C@]4(C)C3CC[C@@]21C (stereo partly specified) | 0.05 | -0.05 |
| C=CC1=C(C(=O)O)N2C(=O)[C@@H](NC(=O)/C(=N\O)c3csc(N)n3)[C@H]2SC1 (stereo in doubt) | -5.1* | . |
| O=C(CCN1CCC(c2ccccc2)C1)c1ccc2c(c1)OCCO2 (stereo unspecified) | 0.05 | 0.42 |
| CC12CCC(CC1)C(C)(C)O2 | . | 60 |

2 entries from above in another layout:
Fields – AID504770, Ba CapD inh
CN1CCN(C(c2ccccc2)c2ccccc2)CC1
    0.5, -0.21
CN1CCN(CCC(=O)N2c3ccccc3Sc3ccc(C(F)(F)F)cc32)CC1
    ., 7

More records follow.
| structure | AID504770 | Ba CapD inh |
| --- | --- | --- |
| O=C1c2ccc(O)c(O)c2C(=O)c2c(O)ccc(O)c21 | -0.6 | -0.3 |
| Cc1cc(-c2ccccc2)nnc1NCCN1CCOCC1 | 0.45 | -0.05&-0.66 |
| O=C1CCCc2cc(S(=O)(=O)N3CCC(C(=O)NC4CCCCCC4)CC3)ccc2N1 | -0.05 | 0.47 |
| C[C@@H]1CC2C3C[C@H](F)C4=CC(=O)C=C[C@]4(C)[C@@]3(F)[C@@H](O)C[C@]2(C)[C@@]1(O)C(=O)COC(=O)C(C)(C)C (stereo partly specified) | 0.7 | -0.27 |
| CC(=O)NC(Cc1ccccc1)C(=O)O (stereo unspecified) | . | 0.29&0.52 |
| CCOC(=O)c1ccc(N)cc1 | 0 | -0.13&-0.7 |
| CC1(C)Cc2c(sc(NC(=S)NC(=O)c3ccccc3)c2C(=O)O)CO1 | . | -0.33 |
| COc1ccccc1-c1cccc(C(=O)O)c1 | 1.3 | . |

Single entries from the results shown.
`COc1ccccc1-c1cccc(C(=O)O)c1` | AID504770 = 1.3
`CCOC(=O)c1ccc(N)cc1` | Ba CapD inh = -0.13&-0.7
`C[C@@H]1CC2C3C[C@H](F)C4=CC(=O)C=C[C@]4(C)[C@@]3(F)[C@@H](O)C[C@]2(C)[C@@]1(O)C(=O)COC(=O)C(C)(C)C` (stereo partly specified) | Ba CapD inh = -0.27
`CC(=O)NC(Cc1ccccc1)C(=O)O` (stereo unspecified) | Ba CapD inh = 0.29&0.52

Next section:
| structure | AID504770 | Ba CapD inh |
| --- | --- | --- |
| CN1CCOC(c2ccccc2)c2ccccc2C1 (stereo unspecified) | 0.2 | 2.3&-1.4 |
| CN(C)CCOC(C)(c1ccccc1)c1ccccn1 (stereo unspecified) | 0.3 | 0.055&0.005 |
| CCN(CC)CCNC(=O)c1cc(Cl)c(N)cc1OC | 0.35 | -0.38&14 |
| CCC(=O)N1CCC(C(=O)O)CC1 | -0.6 | 0.52 |
| CC(C(=O)O)c1ccc(C(=O)c2cccs2)cc1 (stereo unspecified) | -0.25 | -1.4&-0.26 |
| O=C(Nc1cc2cc[nH]c2cn1)c1ccccc1 | -0.9 | 0.12 |
| CC(C)C(=O)Nc1cccc(C(F)(F)F)c1 | 0.45 | 0.11 |
| Cc1c(NC(=O)c2cccnc2)c(=O)n(-c2ccccc2)n1C | -0.4 | -5.2*! |
| OCCN1CCN(CCCN2c3ccccc3Sc3ccc(Cl)cc32)CC1 | -0.1 | 4.4&-0.19 |
| CCCNC(C)C(=O)Nc1c(C)csc1C(=O)OC (stereo unspecified) | . | 0.32 |
| O=C(CCNNC(=O)c1ccncc1)NCc1ccccc1 | . | -1.4 |
| Oc1ccc(/C=C/c2cc(O)cc(O)c2)cc1 | -0.3 | 0.085 |
| CC(COc1ccccc1)NC(C)C(O)c1ccc(O)cc1 (stereo unspecified) | . | -0.43 |
| COc1ccccc1N1CCN(CCCNc2cc(=O)n(C)c(=O)n2C)CC1 | -0.15 | -0.005 |
| c1ccc(CN(CC2=NCCN2)c2ccccc2)cc1 | 0.2 | 0.4&7.9 |
| CC(=O)[C@H]1CCC2C3C[C@H](C)C4=CC(=O)CC[C@]4(C)C3[C@@H](O)C[C@@]21C (stereo partly specified) | 0.3 | 1.2 |

Entries of single compounds, looked up by structure. Order of values: AID504770 | Ba CapD inh
`CC(=O)c1ccc(S(=O)(=O)NC(=O)NC2CCCCC2)cc1` is listed with . | -0.39
`c1ccc(CN(CC2=NCCN2)c2ccccc2)cc1` is listed with 0.2 | 0.4&7.9
`CC(C(=O)O)c1ccc(C(=O)c2cccs2)cc1` (stereo unspecified) is listed with -0.25 | -1.4&-0.26
`Cc1cc(-c2ccccc2)nnc1NCCN1CCOCC1` is listed with 0.45 | -0.05&-0.66
`CC(C)C(=O)Nc1cccc(C(F)(F)F)c1` is listed with 0.45 | 0.11

(list continues)
| structure | AID504770 | Ba CapD inh |
| --- | --- | --- |
| O=C(c1ccc(F)cc1)C1CCN(CCn2c(=O)[nH]c3ccccc3c2=O)CC1 | 0.4 | -0.035 |
| CC(COc1ccccc1)NC(C)[C@H](O)c1ccc(O)cc1 (stereo partly specified) | 0.1 | -0.23 |
| Cc1nc2ccccn2c(=O)c1CCN1CCC(C(=O)c2ccc(F)cc2)CC1 | -0.2 | 0.005 |
| C1CCC(C(CC2CCCCN2)C2CCCCC2)CC1 (stereo unspecified) | -0.45 | 0.27&-0.12 |
| c1ccc(CC2=NCCN2)cc1 | 0 | 3.1&-0.45 |
| CC(=O)c1ccc2c(c1)N(CCCN(C)C)c1ccccc1S2 | . | -1 |
| CN[C@@H]1[C@H](O)[C@H](NC)[C@H]2O[C@@]3(O)C(=O)C[C@@H](C)O[C@H]3OC2[C@H]1O (stereo partly specified) | . | 0.04 |
| COc1cc2c(cc1OC)C(=O)CC2 | -0.1 | 29 |
| COc1ccc(C(=O)CC(=O)c2ccc(C(C)(C)C)cc2)cc1 | -0.05 | . |
| O=C(NCCc1c[nH]c2ccccc12)c1cccnc1 | 0.25 | -0.42 |

This is a subset; the hit share may differ from the screen's.
